Screens (PubChem BioAssay)
GALR2 ag: GALR2 (human) receptor agonism | GALR2-expressing cells, agonist activation read-out | activation, %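 (tested at 5 µM)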 | 0.48% of 140,000 active;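 active = above mean plus 3 SD of all compounds, about 5% in these data, not always enough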;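 also: 0% = vehicle buffer wells and 100% = reference agonist at full effect; tested in CHO reporter cells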
Target sequence (O43603 whole entry, looked up): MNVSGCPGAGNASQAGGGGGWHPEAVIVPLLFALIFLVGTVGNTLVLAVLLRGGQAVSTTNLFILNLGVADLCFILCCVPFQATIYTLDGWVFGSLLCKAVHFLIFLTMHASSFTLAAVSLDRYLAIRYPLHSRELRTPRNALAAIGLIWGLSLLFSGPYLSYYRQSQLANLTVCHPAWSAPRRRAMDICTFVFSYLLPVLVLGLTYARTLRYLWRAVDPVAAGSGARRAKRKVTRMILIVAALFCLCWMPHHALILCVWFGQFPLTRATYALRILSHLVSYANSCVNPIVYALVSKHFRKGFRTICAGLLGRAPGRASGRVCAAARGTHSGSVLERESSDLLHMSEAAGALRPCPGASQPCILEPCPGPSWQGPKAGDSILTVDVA
HSV augment: increases HSV replication in cells. HSV replication augmentation in cells, fold increase. maximum fold increase. 0.005% of 220,000 active. AID 1956;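 active = peak rise of 1.5-fold or more in the series; tested in PC3 cells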;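 also: first round at 10 µM; read as green reporter fluorescence; hits show the peak of a series up to 25 µM; 1 = signal of infected wells without compound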
PKD1 inh: PKD1 (human) kinase inhibition | Q15139 | 0.056% of 200,000 active | inhibition, %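 (about 10 µM by stock and volumes)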 | PKD1 kinase fluorescence polarization assay;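 active = inhibition of 50% or more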;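 also: controls were vehicle for no effect and a reference inhibitor for full effect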
RGS16-Gao: modulates binding between human RGS16 and Galphao; 0.38% of 220,000 active; binding response (% of control), % at 10 µM; bead-based flow cytometry RGS16-Galphao binding, fluorescence; actives lie on both sides;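 active = below 25% or above 175%, edge rows of some plates excepted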;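 also: Galphao activated by GDP with aluminum fluoride before binding; 100% = wells without compound and 0% = beads without RGS; some results beyond the cut were filed as inactive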
Target sequence (O15492 whole entry, looked up): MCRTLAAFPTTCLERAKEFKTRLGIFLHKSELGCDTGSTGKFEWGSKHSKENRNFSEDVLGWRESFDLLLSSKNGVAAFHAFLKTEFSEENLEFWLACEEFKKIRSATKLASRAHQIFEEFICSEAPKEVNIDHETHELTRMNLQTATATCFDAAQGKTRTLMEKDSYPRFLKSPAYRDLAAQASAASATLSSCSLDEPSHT
Target sequence (P09471 whole entry, looked up): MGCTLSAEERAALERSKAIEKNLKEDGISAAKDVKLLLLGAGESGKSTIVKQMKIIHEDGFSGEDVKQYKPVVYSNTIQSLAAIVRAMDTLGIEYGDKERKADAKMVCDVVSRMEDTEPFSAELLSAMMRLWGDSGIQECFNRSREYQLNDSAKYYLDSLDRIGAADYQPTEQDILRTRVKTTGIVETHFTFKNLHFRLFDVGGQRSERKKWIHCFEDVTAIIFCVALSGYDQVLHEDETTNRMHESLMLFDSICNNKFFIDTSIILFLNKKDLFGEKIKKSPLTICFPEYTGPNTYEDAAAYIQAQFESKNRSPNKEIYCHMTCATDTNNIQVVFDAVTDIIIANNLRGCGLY
INS promoter inh: TRM-6 insulin promoter activity inhibition | TRM-6 cells (human fetal islet line), insulin promoter-eGFP reporter, imaging; reporter expression induced with tamoxifen | inhibition, % at 2 µM | 0.9% of 130,000 active | AID 1273;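 active = inhibition above the mean plus 3 SD, with well images judged a real hit on visual review, cut at about 60% in these data, passing the limit was not always enough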
INS promoter inh cell count: recorded beside INS promoter inh, whose call it bears; normalized cell count, %; measured here: cell count, toxicity; reference of the scale not given here;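 cells exposed to compound for 48 h; stained nuclei by imaging scaled within each plate; lower means fewer cells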
HSV augment primary fold: also measured in HSV augment; calls as there; fold increase; compound at 10 µM; measured here: primary screen fold increase 10 uM; tested in PC3 cells;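 GFP signal in the first replicate; 1 = infected wells without compound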
Numbers without * were called inactive; i = inactive; · = no result given; [ ] = another dose, or the depositor's remark. The order is random; 1.3% or so of the library scored in one or more.

SMILES	GALR2 ag	HSV augment	HSV augment primary fold	PKD1 inh	RGS16-Gao	INS promoter inh	INS promoter inh cell count
O=S(=O)(c1ccc2c(c1)OCCO2)N1CCN(c2nc(-c3cccnc3)nc3ccccc23)CC1	·	i	0.85	-1	96	·	·
Clc1cccc(Cl)c1Cn1nnc(-c2cccs2)n1	-2.0	i	0.82	0	216	-225	64
N#CCSc1nnc(COc2ccccc2)n1-c1ccccc1	-2.2	i	0.9	4	·	i	9
Cc1cccc(C)c1OCc1nnc(SCC(=O)NCc2ccccc2)o1	-1.3	i	0.99	-3	100	-76	79
CSCCC(NC(=O)c1ccc(Br)cc1)C(=O)O (centres undefined)	·	i	0.98	-4	90	·	·
O=[N+]([O-])c1cccc(/C=N/Nc2nc(NCc3ccccc3)nc(N3CCOCC3)n2)c1	3.4	i	0.82	-7	107	19	180
c1ccc(Cc2nnc3n2N=C(c2ccccc2)CS3)cc1	·	i	0.9	-1	100	·	·
CCOC(=O)N1CCC(NC(=O)c2cccc3c2C(=O)N(Cc2cccnc2)C3)CC1	-0.9	i	0.92	1	105	·	·
CC(C(=O)NN=C(c1ccccc1)c1ccccc1)N1CCCC1 (centres undefined)	·	i	0.89	-4	102	·	·
CC1(C)CC(=O)N(CC(=O)N2CCN(c3ncccn3)CC2)c2ccccc2S1(=O)=O	3.1	i	0.9	-7	103	·	·
COc1ccccc1N(C)S(=O)(=O)c1ccc(C(=O)OCC(=O)Nc2ccccc2F)cc1	·	i	0.86	-1	65	36	81
O=C(CCCn1c(=O)[nH]c2cc(Cl)ccc2c1=O)NCCCN1CCN(c2ccc(F)cc2)CC1	·	i	1	5	103	-267	65
Cc1cc(C)cc(SCc2noc(C(=O)NCCCN3CCOCC3)c2C(=O)NCCCN2CCOCC2)c1	·	i	0.95	·	100	·	·
Cc1cc(N2CCOCC2)n2ncc(-c3ccc(Cl)cc3)c2n1	·	i	1	·	96	·	·
O=C(NCCCNCc1ccccc1)/C(=N\O)c1ccccc1	-0.6	i	0.92	0	102	-38	74
COC(=O)c1ccsc1NC(=O)c1ccccc1	·	i	0.83	-3	116	18	163
CCS(=O)(=O)N1CCN(c2ccc(C(=O)NC3C4CC5CC(C4)CC3C5)cc2[N+](=O)[O-])CC1 (centres undefined)	0.9	i	0.9	2	105	·	·
O=C(O)/C=C/C(=O)NC1CCCCC1	-0.9	i	0.99	-3	99	·	·
COC(=O)C1=C(C)Nc2nnnn2C1c1cccnc1 (centres undefined)	-2.8	i	1.1	1	101	-6	51
O=C(NCCc1ccccc1F)C1CCCN1S(=O)(=O)c1ccc2ccccc2c1 (centres undefined)	-2.7	i	0.82	0	102	40	87
CC1=NN(c2ccccc2)C(=O)/C1=C/c1c(O)n(-c2ccc(F)c(Cl)c2)[nH]c1=O	-1.3	i	0.85	-4	104	·	·
COC(=O)C(CCCCN1C(=O)C2C3C=CC(C3)C2C1=O)N1C(=O)C2C3C=CC(C3)C2C1=O (centres undefined)	-0.9	i	0.99	11	102	·	·
CCCN(CCC)C(=O)Cn1c(=O)c2ccccc2n2c(=S)sc(-c3ccccc3C)c12	-0.3	i	1.1	-4	104	-21	95
CCOC(=O)c1ccccc1N/C=C/C(=O)c1ccccc1	0.0	i	0.95	2	·	11	76
CC(C)OC(=O)C1=C2SCC(=O)N2C(N)=C(C#N)C1	-1.1	i	1	0	60	-34	163
O=C(NCCCn1ccnc1)C(Cc1ccccc1)N1C(=O)c2ccccc2C1=O (centres undefined)	-3.5	i	0.91	0	103	·	·
COc1ccc2oc(=O)c(C(=O)N3CCCc4ccccc43)cc2c1	-2.6	i	0.75	-3	103	-24	115
CCOC(=O)c1[nH]c2ccccc2c1NC(=O)Nc1ccc(OC)cc1	-0.7	i	1	2	110	18	104
Cc1cc(C(=O)CSc2nnc(-c3ccncc3)n2-c2ccccc2)c(C)n1C	0.4	i	0.86	7	88	31	68
O=C(CSc1nnc(-c2ccc(OC(F)F)cc2)o1)N1CCOCC1	-2.6	i	0.95	-5	95	·	·
C/C(=N\N1CCN(c2ccccc2)CC1)c1cccs1	·	i	0.9	·	97	·	·
CCOc1ccc(NC(=O)C(C)Oc2ccccc2C(=O)Nc2ccc(C)c(Cl)c2)cc1 (centres undefined)	-0.6	i	0.91	-2	98	8	82
CCCCNC(=O)COc1ccccc1[N+](=O)[O-]	0.1	i	1	1	84	7	148
CC(=O)c1cccc(NC(=S)NC(=O)c2ccccc2Br)c1	-1.8	i	1	8	103	25	156
COC(=O)C(C)(C)ONC(=O)Nc1ccccc1Br	-0.6	i	0.93	-3	113	21	88
CN(C(=O)c1ccc(-c2nn(C)c(=O)c3ccccc23)cc1)c1ccccc1	-0.5	i	0.74	0	99	18	91
O=C(NC(Cc1c[nH]c2ccccc12)c1nnc2n1CCCCC2)c1ccc(Cl)cc1 (centres undefined)	-1.5	i	0.76	-5	110	-30	164
N#Cc1nc(Cc2cccc3ccccc23)oc1N1CCOCC1	-2.0	i	0.84	4	105	16	92
CN1c2ccc(Cl)cc2C(=O)NC1c1ccc([N+](=O)[O-])s1 (centres undefined)	·	i	1	·	102	·	·
NS(=O)(=O)c1ccc(NC(=S)NCC2CCCO2)cc1 (centres undefined)	-2.6	i	0.97	4	43	1	105
CCCOC(=O)c1ccc(NC(=O)COC)cc1	0.4	i	0.99	-9	106	-15	117
COC(=O)c1ccccc1OCC(=O)N1CCN(c2ccc(Cl)cc2)CC1	-0.6	i	0.89	-1	461*[activator]	-33	88
O=C(NC1(C(F)(F)F)NC(=O)N(C2CCCCC2)C1=O)C1CC1 (centres undefined)	·	i	1.1	6	79	·	·
Cc1cnc(CN(C)Cc2c(C(=O)N3CCc4ccccc4C3)nc3ccc(Cl)cn23)[nH]1	·	i	1.2	-3	93	·	·
CC(C)CNC(=O)COC(=O)c1n[nH]c2ccccc12	·	i	0.96	-9	94	27	100
Cc1c(Cl)cnc(NC(=O)COC(=O)c2ccc([N+](=O)[O-])s2)c1Cl	-1.2	i	1.1	0	99	·	·
COc1ccc(/C=C2\SC(=S)N(CC(=O)N3CCN(C)CC3)C2=O)cc1	·	i	1	·	101	·	·
CCCCNS(=O)(=O)c1ccc2nc(SCC(=O)Nc3cc(C)cc(C)c3)[nH]c2c1	-1.9	i	0.81	2	98	-46	111
CCOc1ccc(-c2cc3nc(C4CCN(C(=O)OC(C)(C)C)CC4)c(C(=O)O)cn3n2)cc1	0.4	i	1.1	-6	95	-6	93
O=C1NC(c2ccc(-c3ccccc3[N+](=O)[O-])o2)C(C(=O)c2ccc(Cl)cc2)C(O)(C(F)(F)F)N1 (centres undefined)	0.7	i	1.1	5	102	·	·
CN1CCN(c2ccc(S(=O)(=O)N3CCCCC3)cc2NC(=O)Cc2ccc(Cl)cc2)CC1	0.2	i	1	-3	159	·	·
Cc1cccnc1Nc1nc(-c2ccc(O)cc2O)cs1	-3.3	i	0.9	-20	98	56	136
Cc1ccc(C(=O)c2sc3nsc(C)c3c2N)cc1	-1.7	i	0.95	-14	93	4	128
O=C(CSc1ccc(Cl)cc1)NC(=O)NCc1ccco1	·	i	1	-4	96	-21	85
O=C(CSc1ccccn1)Nc1ccc2c(c1)OCCO2	·	i	1.2	·	104	·	·
O=C(O)/C=C/c1cnc[nH]1	0.7	i	0.96	-7	101	-29	152
O=S(=O)(CCSc1ccc(C(F)(F)F)cn1)c1ccccc1	·	i	1.2	·	103	·	·
Cc1ccc(S(=O)(=O)O/N=C2/CCCc3occc32)cc1	-2.2	i	1	-5	102	·	·
CN(C)S(=O)(=O)c1cccc(C(=O)Nc2ccc(S(=O)(=O)N3CCCC3)cc2)c1	·	i	0.88	-4	98	·	·
Nn1c(Nc2ccccc2)nc2sc3c(c2c1=O)CCC3	-1.2	i	0.85	-8	95	·	·

Remaining list, next part:
SMILES	GALR2 ag	HSV augment	HSV augment primary fold	PKD1 inh	RGS16-Gao	INS promoter inh	INS promoter inh cell count
CCn1ncc(Br)c1C(=O)Nc1cc(C(=O)OC)ccc1C(=O)OC	0.4	i	1	-6	104	·	·
COC(=O)c1sc2nc(SCC(=O)N(C)c3ccccc3)n(N)c(=O)c2c1C	·	i	1	-3	89	40	123
CSc1ccccc1NC(=O)c1cnccn1	-0.3	i	0.87	-9	98	32	153
Cc1ccc(C(=O)NCCSc2c(C)[nH]c3ccccc23)cc1[N+](=O)[O-]	-0.7	i	0.76	6	52	0	79
O=C(CSc1nnc(-c2ccncc2)n1Cc1ccco1)Nc1nccs1	-2.9	i	1	-3	107	-38	122
Cc1ccccc1OCC(=O)N/N=C/c1sc(=O)n(Cc2cccc(C(=O)O)c2)c1Cl	·	i	1.1	·	101	·	·
CCNc1ccc(Br)cc(C(=O)/C=C/c2c(Cl)cccc2Cl)c1=O	-3.1	i	0.78	0	98	10	46
O=C(O)C1CCCCC1C(=O)NCCCN1CCOCC1 (centres undefined)	0.5	i	1.2	-6	104	36	75
COC(=O)CNc1nc(-c2ccccc2F)nc2ccccc12	-0.5	i	0.73	-10	105	59	90
O=S(=O)(c1ccc2c(c1)OCCO2)N1CCN(Cc2ccc3c(c2)OCO3)CC1	-0.3	i	0.83	1	107	-11	67
CCOCCCNC(=O)C(c1ccc(OC)cc1)N(Cc1cccs1)C(=O)c1ccccn1 (centres undefined)	·	i	1	8	112	-140	63
CCCCCCCCc1nc(=S)[nH][nH]1	-2.2	i	0.95	-2	123	53	98
O=C(O)CC(CC(=O)Nc1ccccc1C(=O)O)c1ccccc1 (centres undefined)	·	i	0.88	·	98	·	·
Cc1ccc(NC(=O)NCc2ccccn2)cc1	·	i	1.1	-5	97	-74	81
COc1ccc(OC)c(-n2c(SCC(N)=O)nnc2-c2c[nH]c3ccccc23)c1	-3.7	i	0.98	1	102	·	·
CSc1nc(O)c(/C=C2\C=Nc3ccccc32)[nH]1	-0.9	i	1.2	3	113	-7	64
Brc1ccc(/C=N/Nc2ncnc3c2cnn3Cc2ccccc2)cc1	-1.0	·	·	-5	155	0	97
CN(C)CCSc1nnc(-c2ccccc2)o1	-0.7	i	1	1	98	·	·
Cc1onc(-c2c(Cl)cccc2Cl)c1C(=O)ONC(=O)c1cc(C(F)(F)F)cc(C(F)(F)F)c1	·	i	0.99	·	91	·	·
O=[N+]([O-])c1ccc2nc(-[n+]3c(-c4ccccc4)cc(-c4ccccc4)cc3-c3ccccc3)[nH]c2c1	0.2	i	0.95	-5	95	-62	93
CCOC(=O)N1CCC(NC(=O)c2ccc(N3CCC4(CC3)OCCO4)c([N+](=O)[O-])c2)CC1	·	i	0.98	4	99	·	·
CC(=O)Nc1ccc(S(=O)(=O)NNC(=O)c2cccc3ccccc23)cc1	-1.7	i	0.83	-4	102	15	108
COc1ccc(CCN2C(=S)N(C)C(=O)C2CC(=O)Nc2ccc(OC)cc2)cc1 (centres undefined)	·	i	0.88	-2	103	-13	149
CC(Sc1ccsc1[N+](=O)[O-])C(=O)NCc1ccco1 (centres undefined)	·	i	0.96	-2	38	-50	33
CCOCCCNC(=O)C(c1ccccc1)N(Cc1cccs1)C(=O)c1ccccc1O (centres undefined)	·	i	0.99	-7	104	·	·
CC(C)(C)C(=O)Nc1cccc(C(=O)c2cccc(NC(=O)C(C)(C)C)c2)c1	-0.1	i	0.93	-11	101	-31	77
Cc1cc(C)cc(N2C(=O)CC(N3CCOCC3)C2=O)c1 (centres undefined)	1.5	i	0.89	4	102	0	140
CCO/N=C(\C)c1c(O)c(CC)c(-c2ccccc2)n(-c2ccccc2)c1=O	-1.7	i	0.91	-2	107	-95	111
O=C(O)c1ccc2cccc(O)c2n1	·	i	1.2	·	90	·	·
